Measles inh: inhibitors of measles virus growth in infected cells; z-score (concentration not given with the values); 33,000 tested, 0.1% active; infected Vero cells, GFP fluorescence, 64 h; stronger effect = lower value;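 active = z-score under -3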;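 note: score is relative to mean and SD of the compound wells of a plate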
An asterisk follows results filed as active. These rows are one share of the data, so the mix of outcomes need not match the whole.

no. | mol | Measles inh
1 | CCc1nc(SCC(=O)Nc2ccc(Br)cc2)c(C#N)c2c1CCCC2 | -0.44
2 | COc1ccc(CNCCC2(c3ccc(OC)cc3)CCOC(C)(C)C2)cc1 (centres undefined) | -0.23
3 | Cc1nc(NC(=O)c2cc(-c3ccc(Br)cc3)nc3ccccc23)sc1C | -1.1
4 | COc1ccc(S(=O)(=O)N2CCc3cc(OC)c(OC)cc3C2)cc1 | 0.43
5 | COc1ccc2c(c1)c(=O)c1ccccc1n2CC(=O)Nc1cccc([N+](=O)[O-])c1 | -0.29
6 | COc1ccc(C(=O)c2sc3nc4c(cc3c2N)CCCCCC4)cc1 | 1.6
7 | O=C(Nc1ccc(F)cc1)c1ccc(OC(=S)Nc2ccc(I)cc2)cc1 | 0.22
8 | CCNc1nnc(-c2nn(C)c(C)c2Cl)s1 | 1.2
9 | Cc1ccc(C2C3=C(CCCC3=O)Nc3ccccc3N2C(=O)c2ccccc2)cc1 (centres undefined) | 0.75
10 | COc1ccc(CN2CC(C(=O)NCC3CCCO3)CC2=O)cc1 (centres undefined) | -1.5
11 | COc1ccc(NC(=O)C2=C(C)NC3=C(C(=O)CC(c4ccc(OC)c(OC)c4)C3)C2c2ccc(C(C)C)cc2)cc1 (centres undefined) | -0.36
12 | NC(=O)c1cc(-c2ccsc2)no1 | -1.4
13 | CC1CCN(c2nc(-c3ccccc3F)nc3ccccc23)CC1 | -0.53
14 | O=C(Cc1ccccc1)N1CCN(S(=O)(=O)c2ccc(Cl)cc2)CC1 | 0.3
15 | O=C1CCC([N+](=O)[O-])C(c2ccc(OCc3ccccc3)cc2)N1 (centres undefined) | -0.12
16 | C=CCc1c(C)nc(SCC(C)C)[nH]c1=O | 1
17 | CC1CC(C)CN(C(=O)c2cn(C3CCCC3)c(=O)c3c2c2ccccc2n3C)C1 (centres undefined) | 1.1
18 | CC(C)(C)C(=O)C1C(c2cccnc2)C(C#N)(C#N)C2C=Cc3ccccc3N12 (centres undefined) | 5.5
19 | CCOC(=O)c1cnc2c(C)cc(C)cc2c1Nc1ccc(O)cc1 | -0.42
20 | CCCOC(=O)C1=C(C)NC2=C(C(=O)CCC2)C1c1cccnc1 (centres undefined) | -0.05
21 | COc1ccc(-n2ccnc2SCC(=O)Nc2cc(C)cc(C)c2)cc1 | -0.61
22 | CC1CCN(S(=O)(=O)c2ccc3c(c2)N(CC(=O)NCCN2CCCC2)C(=O)CS3)CC1 | -0.99
23 | Cc1c(NC(C)c2cc(Cl)ccc2O)c(=O)n(-c2ccccc2)n1C (centres undefined) | -0.32
24 | CC12C=CC(O1)C1C(=O)N(c3cccc4ccccc34)C(=O)C12 (centres undefined) | -0.57
25 | CC(=O)OCc1cnc(C)c2oc(=Nc3ccccc3)c(C(=O)Nc3cccc(F)c3)cc12 | -0.09
26 | Cc1ccc(S(=O)(=O)Nc2nc3ccc(NC(=O)c4ccc(N)cc4)cc3s2)cc1 | 1.8
27 | CN(C)CCN1C(=O)C2C(c3ccccc3)C=CC(c3ccccc3)C2C1=O (centres undefined) | -0.21
28 | COc1ccc(C2/C(=C(\O)c3ccccc3)C(=O)C(=O)N2CC(C)O)cc1OC (centres undefined) | -1.6
29 | CCOC(=O)Cc1cc(-c2ccccc2)nc2ccc3ccccc3c12 | 0.03
30 | Cc1ccc(-c2nc3ccccc3s2)cc1N | -1
31 | CCOc1ccc(NC(=O)CSc2nc(O)cc(=O)[nH]2)cc1 | 0.2
32 | COc1ccc(CCNC(=O)N2c3ccccc3Sc3ccccc32)cc1 | -0.57
33 | CCOC(=O)c1sc(N2C(=O)c3ccccc3C2=O)c(C(=O)OCC)c1C | -1
34 | CC[n+]1c(C=C2C=C(C)CC(C)(C)C2)oc2ccccc21 | -1.3
35 | CCCc1cc(=O)oc2c(C)c(OCc3ccc(F)cc3)ccc12 | -1.6
36 | C=CCn1c(=S)[nH]c2sc3c(c2c1=O)CC(C)(C)OC3 | 0.6
37 | O=C1c2cccc([N+](=O)[O-])c2C(=O)N1CCOc1ccccc1 | 0.63
38 | COC(=O)C1C(=O)C2=C(CC1C)NC(C)=C(C(=O)OC1CCCCC1)C2c1cc(OC)ccc1OC (centres undefined) | -0.66
39 | CCN1C(=O)CSc2ccc(C(=O)NCc3ccco3)cc21 | 0.25
40 | CNc1nc(-c2cccs2)cc(C(F)(F)F)n1 | 0.48
41 | O=S(=O)(Nc1cccc(F)c1)c1cnc[nH]1 | -1.1
42 | Nc1c(C(=O)N2CCCCC2)sc2nc3c(cc12)CCC3 | -0.07
43 | CSc1nc2ccccc2c(=O)n1CC1CCCCC1 | -1.7
44 | O=C(Nc1ncn[nH]1)c1ccco1 | -0.05
45 | CCOCCCNCc1ccc(Cl)cc1 | -0.27
46 | COc1ccc2nc(NC(=O)CCCOc3cccc(C)c3)sc2c1 | -0.25
47 | Cc1c(C(=O)OC(C)C)sc(NC(=O)c2cc3ccccc3c(=O)o2)c1C(=O)OC(C)C | -0.71
48 | COC(=O)c1ccc2c3c(cccc13)CC2 | 0.47
49 | Cc1ccc(C(=O)Oc2c(S(=O)(=O)c3ccccc3)c(C)nn2-c2ccccc2)cc1[N+](=O)[O-] | 0.4
50 | Cc1ccc(-n2ncc3c(Nc4ccc(Br)cc4)ncnc32)c(C)c1 | -0.59
51 | Cc1cccc(-c2noc(COc3ccc(C)cc3Br)n2)c1 | -0.9
52 | Cc1ccc(N2C(=O)c3ccccc3NC2c2ccc(F)cc2)cc1 (centres undefined) | 0.55
53 | CCN(CC)c1ccc(NC(=O)c2ccc(C)o2)cc1 | -0.81
54 | COc1ccc(C2=CC(c3cccc(Br)c3)n3nc(CCCO)nc3N2)cc1 (centres undefined) | -0.08
55 | CCCCc1nnc2n1N=C(c1ccc(Br)cc1)CS2 | -0.59
56 | CCOc1ccc(C2CC(=O)C3=C(C2)Nc2ccccc2NC3c2cc(Br)c(OC)c(OC)c2)cc1OC (centres undefined) | 0.27
57 | NS(=O)(=O)c1ccc(CCNC(=O)CCN2C(=O)c3cccnc3C2=O)cc1 | -0.57
58 | CC(C)NS(=O)(=O)c1cccc2nsnc12 | 1.7
59 | O=C(CSc1c2c(nc3ccccc13)CCCC2)NC1CCCCC1 | -0.21
60 | O=C(COc1ccc2c(c1)C(=O)CC1(CCCCC1)O2)NCc1ccc(F)cc1 | -0.09

Later entries:
no. | mol | Measles inh
61 | CCCCNC(=O)c1ccc2c(c1)nc(C1CCN(S(=O)(=O)c3ccc(C)cc3)CC1)n2C1CCCCC1 | 1.9
62 | CC(NS(=O)(=O)c1ccccc1F)C(=O)O (centres undefined) | -0.25
63 | COCCn1c(=N)c(C(=O)OC)cc2c(=O)n3cccc(C)c3nc21 | -0.36
64 | Cc1ccc(OC(=O)C2C3CCCCC32)cc1 (centres undefined) | -0.46
65 | O=C(CNC(=O)C1CCCCC1)NCc1ccco1 | -1.3
66 | CCc1ccc(NC(=O)C2c3cc(OC)c(OC)cc3C(=O)N(C)C2c2cccnc2)cc1 (centres undefined) | -0.81
67 | Cc1ccc(-c2nc3ncccn3c2Nc2ccccc2C)cc1 | 0.76
68 | CCC(C)(C(=O)NC1CCCC1)N(C(=O)c1ccccn1)c1ccccc1 (centres undefined) | -0.9
69 | Cc1c(C(=O)NC(C)C)oc2ccc(S(=O)(=O)N3CCCC3)cc12 | 0.36
70 | O=C(c1cccc2ccccc12)N1CCN(c2ccc([N+](=O)[O-])cc2)CC1 | -0.81
71 | CCCOc1ccc(C2Oc3ccccc3C3CC(c4ccccc4)=NN32)cc1 (centres undefined) | 1.8
72 | OC1(C#CCN2CCCCCC2)CCCCC1 | -0.43
73 | COc1ccc(Oc2c(C(F)(F)F)oc3cc(OC(=O)c4ccc(OC)c(OC)c4)ccc3c2=O)cc1 | -0.02
74 | CC1CC(Nc2ncnc(N)c2[N+](=O)[O-])CC(C)(C)C1 (centres undefined) | -0.35
75 | Cc1cc(C)n(C(=O)CCCCCCC(=O)n2nc(C)cc2C)n1 | -0.58
76 | CCN(CC)C1CC(=O)N(c2ccc([N+](=O)[O-])cc2)C1=O (centres undefined) | -0.07
77 | CCOC(=O)c1sc(NC(=O)c2cc(-c3ccccc3)nc3ccccc23)c(C(N)=O)c1C | 0.38
78 | CC1CC(C)CN(S(=O)(=O)c2ccc(C(=O)N=c3sc4cc(S(C)(=O)=O)ccc4n3C)cc2)C1 (centres undefined) | 0.87
79 | CC(=O)NC1=NN(C(C)=O)C(C=Cc2ccccc2)S1 (centres undefined) | -0.81
80 | COc1cc(C=Cc2nc3cc(Cl)ccc3c(=O)n2-c2ccccc2F)cc(OC)c1OC | -0.49
81 | O=C(CSc1nc2c(c(=O)n1-c1ccccc1)SCC2)Nc1ccc2c(c1)OCO2 | 0.81
82 | COc1ccc(Nc2nc(N3CCNCC3)nc3ccccc23)c(OC)c1 | -0.32
83 | COc1ccc(C2=NN(S(=O)(=O)c3ccccc3)C(c3cc4cccc(C)c4nc3Cl)C2)cc1 (centres undefined) | -0.26
84 | COc1ccc(S(=O)(=O)Nc2ccc(F)cc2)cc1OC | 0.19
85 | CN(C)S(=O)(=O)c1ccc(C(=O)N2CCN=C2SCc2ccccc2F)cc1 | 1.8
86 | Cc1ccc(C(NC(=O)Cc2cc3ccccc3[nH]2)C(=O)Nc2ccc3c(c2)OCCO3)cc1 (centres undefined) | -0.44
87 | Cc1ccc(C(=O)COC(=O)c2ccccc2Sc2ccc([N+](=O)[O-])cc2)cc1 | -0.29
88 | CCC12C(=O)C(CC)(C(c3ccccc3)=C1c1ccccc1)C1C(=O)N(c3ccc(C#N)cc3)C(=O)C12 (centres undefined) | -0.31
89 | O=c1cc(-c2ccccc2)c2ccc(O)c(CN3CCCCCC3)c2o1 | 1.2
90 | O=C(NCCN1CCCC1)C1CCC(=O)N1Cc1ccc(F)cc1 (centres undefined) | 1.4
91 | CCC(C)NC(=O)c1ccc2c(c1)N(Cc1cccc(C)c1)C(=O)CS2 (centres undefined) | 1.5
92 | COc1ccc(C2NC(=O)NC(C)=C2C(=O)OCCc2ccccc2)cc1OC (centres undefined) | -0.84
93 | COc1ccc(-c2nc3ccc(C)cn3c2Nc2ccc(C)cc2)cc1 | -0.7
94 | O=C1c2ccccc2C(=O)c2c1ccc(N1C(=O)c3ccccc3C1=O)c2Cl | 0.12
95 | COc1ccc(CC(O)CN2CCCCC2)cc1 (centres undefined) | -0.41
96 | O=C(NC1CCCCC1)C1CCN(S(=O)(=O)c2ccc(Br)s2)CC1 | -1.3
97 | NC(=O)c1c(NC(=O)c2ccc(F)cc2)sc2c1CCC2 | -0.37
98 | O=C(CN1C(=O)C2C3C=CC(C3)C2C1=O)Nc1cccc2c1CCCC2 (centres undefined) | -1.8
99 | O=C(NCCc1ccccc1)C(=O)Nc1ccccc1F | -0.68
100 | Cc1cc(N2CCOCC2)nc2ccc(NC(=O)CCC(=O)NCc3ccc(F)cc3)cc12 | 0.84
101 | CC(C)(C)c1ccc(C(=O)NCCOCc2ccccc2)cc1 | -0.48
102 | NC(=O)CSc1nnc(-c2ccccc2)c(-c2ccccc2)n1 | 0.29
103 | COc1ccc(N2CCN(C(=O)CN(C)S(=O)(=O)c3cccs3)CC2)cc1 | 1.6
104 | COC(=O)c1c(NC(=O)c2ccc(C)c([N+](=O)[O-])c2)sc2c1CCC2 | 1.6
105 | Cc1ccc(C2=CC(c3ccccc3F)n3nnnc3N2)cc1 (centres undefined) | -0.29
106 | COc1ccc(-c2csc(NC(=O)Cn3nc(C)cc3C)n2)cc1 | -0.62
107 | O=C(Nc1ccc(Cc2ccncc2)cc1)C1CCC(N2C(=O)C3CC=CCC3C2=O)CC1 (centres undefined) | -0.09
108 | COc1ccc2c(c1)CCc1c(C(=O)Nc3ccn(Cc4ccc(C)cc4)n3)noc1-2 | -0.08

Some of these compounds in order of heavy-atom count, low to high.
no. | mol | Measles inh
102 | NC(=O)CSc1nnc(-c2ccccc2)c(-c2ccccc2)n1 | 0.29
104 | COC(=O)c1c(NC(=O)c2ccc(C)c([N+](=O)[O-])c2)sc2c1CCC2 | 1.6
98 | O=C(CN1C(=O)C2C3C=CC(C3)C2C1=O)Nc1cccc2c1CCCC2 (centres undefined) | -1.8
108 | COc1ccc2c(c1)CCc1c(C(=O)Nc3ccn(Cc4ccc(C)cc4)n3)noc1-2 | -0.08

Laid out differently: entries from further up
103: COc1ccc(N2CCN(C(=O)CN(C)S(=O)(=O)c3cccs3)CC2)cc1
  Measles inh: 1.6
104: COC(=O)c1c(NC(=O)c2ccc(C)c([N+](=O)[O-])c2)sc2c1CCC2
  Measles inh: 1.6
105: Cc1ccc(C2=CC(c3ccccc3F)n3nnnc3N2)cc1 (centres undefined)
  Measles inh: -0.29
106: COc1ccc(-c2csc(NC(=O)Cn3nc(C)cc3C)n2)cc1
  Measles inh: -0.62

The list goes on:
no. | mol | Measles inh
109 | COc1ccc(-c2csc(=Nc3ccc(F)cc3)n2CCO)cc1F | -0.75
110 | CCOC(=O)c1c(NC(=O)c2ccoc2C)sc2c1CCC(C(C)(C)C)C2 (centres undefined) | -0.26
111 | Cc1ccc(NS(=O)(=O)c2cccs2)cc1 | 0.1
112 | COc1ccccc1C(=O)Nc1ccc(S(=O)(=O)Nc2nccc(C)n2)cc1 | -0.59
113 | CCCCCOC(=O)C1=C(C)NC2=C(C(=O)CC(C)(C)C2)C1c1cccc(OC)c1 (centres undefined) | -0.98
114 | COc1ccccc1Nc1nc(-c2cc(C)ccc2C)cs1 | 0.37
115 | CC(C)c1ccc(NC(=O)c2sc3nc4c(cc3c2N)C(=O)CC(C)(C)C4)cc1 | 0.92
116 | COc1ccc2c(c1OC)C(=O)N(c1ccc(C)cc1)C2=O | 0.3
117 | CC(C)(C)NC(=O)C1CCN(S(=O)(=O)c2ccc(F)cc2)CC1 | -0.09
118 | O=C(NC1CCCCCCC1)c1ccc2c(c1)ncn2C1CCCC1 | 0.89
119 | COc1ccc(Nc2ncc(C(=O)N3CCCc4ccccc43)c3ccccc23)cc1 | -0.29
120 | CCN(CC)C(=O)Cn1cnc2sc(C(=O)NC3CCCCC3)c(C)c2c1=O | 0.43
121 | CC1CCCN(C(=O)c2c(NC(=O)c3cccs3)sc3c2CCC(C(C)(C)C)C3)C1 (centres undefined) | 0.45
122 | C=C(C)CSc1nc2c(c(=O)n1CC)C1(CCCCC1)Cc1ccccc1-2 | -1.8
123 | O=C(CSC1CC(=O)N(c2ccc(Br)cc2)C1=O)Nc1ccccc1 (centres undefined) | -0.37
124 | COc1ccc(Cn2c(SCC(N)=O)nc3ccc(N4CCOCC4)cc3c2=O)cc1 | -0.68
125 | Cc1ccc(Cl)c2c1NC(c1ccc(S(=O)(=O)N3CCOCC3)cc1)C1CC=CC21 (centres undefined) | -0.34

Compound activity (PubChem BioAssay)
